# Compound activity (PubChem)
# RGS16-Gao HTS = modulates binding between human RGS16 and Galphao; O15492+P09471; bead-based flow cytometry RGS16-Galphao binding, fluorescence; actives lie on both sides; binding response (% of control), % at 10 µM; 0.38% of 220,000 active; AID 1441;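 active = below 25% or above 175%, edge rows of some plates excepted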;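 also: Galphao activated by GDP with aluminum fluoride before binding; 100% = wells without compound and 0% = beads without RGS; some results beyond the cut were filed as inactive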
# Target sequence (O15492 whole entry, looked up): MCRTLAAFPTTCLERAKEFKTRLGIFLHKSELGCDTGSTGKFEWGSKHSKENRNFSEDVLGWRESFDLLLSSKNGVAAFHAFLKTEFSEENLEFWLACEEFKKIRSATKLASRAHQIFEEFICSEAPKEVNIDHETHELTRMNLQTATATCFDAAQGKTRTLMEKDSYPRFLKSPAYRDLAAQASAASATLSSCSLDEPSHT
# Target sequence (P09471 whole entry, looked up): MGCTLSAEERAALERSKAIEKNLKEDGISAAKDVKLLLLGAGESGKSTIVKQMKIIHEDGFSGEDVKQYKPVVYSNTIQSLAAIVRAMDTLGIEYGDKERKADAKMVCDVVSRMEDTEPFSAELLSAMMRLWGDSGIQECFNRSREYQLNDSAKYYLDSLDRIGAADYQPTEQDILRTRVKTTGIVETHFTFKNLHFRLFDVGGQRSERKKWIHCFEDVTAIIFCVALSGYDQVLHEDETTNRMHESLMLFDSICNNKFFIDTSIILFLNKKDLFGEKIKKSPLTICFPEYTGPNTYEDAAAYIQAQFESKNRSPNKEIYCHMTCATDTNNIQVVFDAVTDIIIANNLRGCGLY
# HSV augment = increases HSV replication in cells; 0.005% of 220,000 active; maximum fold increase; AID 1956; HSV replication augmentation in cells, fold increase;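 active = peak rise of 1.5-fold or more in the series; tested in PC3 cells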;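 also: first round at 10 µM; read as green reporter fluorescence; hits show the peak of a series up to 25 µM; 1 = signal of infected wells without compound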
# PKD1 inh = PKD1 (human) kinase inhibition. inhibition, %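 (about 10 µM by stock and volumes)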. PKD1 kinase fluorescence polarization assay. 0.056% of 200,000 active. AID 797;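 active = inhibition of 50% or more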;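 also: controls were vehicle for no effect and a reference inhibitor for full effect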
# GALR2 agonist = GALR2 (human) receptor agonism; GALR2-expressing cells, agonist activation read-out; activation, %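 (tested at 5 µM)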; 0.48% of 140,000 active; AID 803;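 active = above mean plus 3 SD of all compounds, about 5% in these data, not always enough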;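 also: 0% = vehicle buffer wells and 100% = reference agonist at full effect; tested in CHO reporter cells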
# Target sequence (O43603 whole entry, looked up): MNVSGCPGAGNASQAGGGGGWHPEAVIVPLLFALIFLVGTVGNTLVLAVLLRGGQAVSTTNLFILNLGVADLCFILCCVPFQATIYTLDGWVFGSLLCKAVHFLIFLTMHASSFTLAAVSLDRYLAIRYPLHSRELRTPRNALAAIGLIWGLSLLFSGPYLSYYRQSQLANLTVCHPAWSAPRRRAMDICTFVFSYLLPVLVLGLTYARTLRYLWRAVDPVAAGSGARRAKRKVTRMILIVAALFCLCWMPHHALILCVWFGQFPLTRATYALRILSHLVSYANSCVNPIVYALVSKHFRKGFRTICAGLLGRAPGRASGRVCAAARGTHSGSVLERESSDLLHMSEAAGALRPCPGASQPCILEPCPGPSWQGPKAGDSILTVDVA
# INS promoter inh = TRM-6 insulin promoter activity inhibition. TRM-6 cells (human fetal islet line), insulin promoter-eGFP reporter, imaging; reporter expression induced with tamoxifen. inhibition, % at 2 µM. 0.9% of 130,000 active;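 active = inhibition above the mean plus 3 SD, with well images judged a real hit on visual review, cut at about 60% in these data, passing the limit was not always enough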
# INS promoter inh cell count = recorded beside INS promoter inh, whose call it bears; normalized cell count, %; measured here: cell count, toxicity; reference of the scale not given here;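 cells exposed to compound for 48 h; stained nuclei by imaging scaled within each plate; lower means fewer cells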
# HSV augment primary fold = further read-out of HSV augment, marked with its call; fold increase; compound at 10 µM; measured here: primary screen fold increase 10 uM; tested in PC3 cells;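 GFP signal in the first replicate; 1 = infected wells without compound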
# * = called active by the depositor; i = inactive; / = no result given.
SMILES,RGS16-Gao HTS,HSV augment,HSV augment primary fold,PKD1 inh,GALR2 agonist,INS promoter inh,INS promoter inh cell count
CNC(=O)CN(C)S(=O)(=O)c1ccc(OC)c(Cl)c1,17*,i,0.92,7,1.1,68,48
COCCNc1nc(CSc2ccccc2)nc2sc(C)c(C)c12,102,i,0.85,9,0.3,/,/
O=C(CN1CCCCC1)Nc1c2c(nc3ccccc13)N(c1ccccc1)CC2,97,i,0.95,1,/,/,/
Cc1cc(=O)c2cc(Br)ccc2n1CC(=O)NCc1ccccc1,96,i,0.97,/,/,/,/
COc1ccc(Cl)cc1C(=O)NC(=S)Nc1cc(-c2nc3ccccc3[nH]2)ccc1C,96,i,0.7,-2,0.8,-18,59
CC(=O)n1nc(-c2ccccc2)nc1NCc1ccc(F)cc1,101,i,1.1,-4,-2.6,50,151
C#CC[N+](C)(C)CC#Cc1ccc(Cl)cc1,99,i,0.76,3,-0.1,/,/
O=C(CCc1ccccc1)Nc1ccccc1[N+](=O)[O-],102,i,0.99,0,-0.9,-94,129
COc1ccc(CN(C(=O)c2ccc(-c3ccccc3)[nH]2)C(C(=O)NCC2CCCO2)c2ccc(C)o2)cc1 (stereo not given),103,/,/,5,-1.4,33,146
O=C(Nc1ccc(S(=O)(=O)N2CCOCC2)cc1)c1ccc(=O)[nH]c1,101,i,0.95,/,/,/,/
CCOP(=O)(Nc1ccc2oc(=O)c3ccccc3c2c1)OCC,100,i,1,/,/,/,/
O=C(C1CCCO1)N1CCN(C(=S)Nc2ccc(Cl)cc2)CC1 (stereo not given),116,i,1,0,0.6,28,151
O=C(NCCN1C(=O)S/C(=C\c2ccc(OC(F)F)cc2)C1=O)c1cnccn1,117,i,0.66,4,-0.1,-38,90
CCOc1ccc(CC(=O)Nc2ccc(S(=O)(=O)Nc3cc(C)on3)cc2)cc1OCC,96,/,/,-10,-1.6,/,/
COc1cccc(-c2csc(N3CCN(C(=O)Nc4ccccc4OC)CC3)n2)c1,65,i,1.1,-3,-2.7,-21,107
Cc1ccc(-n2c(C)cc(/C([O-])=C(/C(=S)Nc3ccc(F)c(Cl)c3)[n+]3ccccc3)c2C)cc1,96,i,1,-4,0.4,/,/
O=C1C2ON(c3ccc(Cl)cc3)C(c3ccco3)C2C(=O)N1c1ccccc1 (stereo not given),97,i,0.97,3,-2.3,15,88
Cc1nc(-c2ccc3c(c2)CCC(=O)N3)cs1,98,i,1.1,/,/,/,/
Cc1ccc(CNC(=O)CSc2ccc(-c3ccco3)nn2)cc1,103,i,0.87,0,-0.2,-6,145
CCC(C)(C)NC(=O)CN(CCc1cccc(C)c1)C(=O)c1csnn1,113,i,0.95,-7,/,/,/
C/C(=N\Nc1ccc([N+](=O)[O-])cc1)c1ccc(-n2nncc2C)cc1,106,i,0.98,-16,-0.9,-25,163
CCC(C)N1CCCCC1C(=O)Nc1c(C)cc(C)cc1C (stereo not given),214,i,0.86,-1,-1.0,-76,98
CC(=O)/C(N=Nc1nc2c([nH]1)c(=O)n(C)c(=O)n2C)=C(\C)O,121,i,1.2,/,/,/,/
COC(=O)[C@H](Cc1ccccc1)NC(=O)O[C@@H]1C(=O)c2cc(OC)ccc2O[C@H]1c1ccc(OC)c(Br)c1,115,/,/,1,-1.8,14,74
Cc1cc(NC(=O)c2cc3ccccc3oc2=O)no1,99,i,0.92,-15,-3.5,-10,99
# Carrying on:
SMILES,RGS16-Gao HTS,HSV augment,HSV augment primary fold,PKD1 inh,GALR2 agonist,INS promoter inh,INS promoter inh cell count
Cc1ccc(C2=NN(S(=O)(=O)c3ccccc3)C(c3ccccc3O)C2)cc1 (stereo not given),115,/,/,-6,/,-323,95
CCCCNC(=O)C1C2C=CC3(CN(Cc4ccc(C)cc4)C(=O)C13)O2 (stereo not given),108,i,0.89,-18,-2.8,/,/
CC(=O)Nc1ccc(NC(=O)Cn2c(=O)n(-c3ccccc3)c(=O)c3oc4ccccc4c32)cc1,78,i,0.92,-1,/,/,/
c1ccc(-c2noc(CSc3nnc(Cc4cccs4)n3-c3ccccc3)n2)cc1,97,i,1.4,-15,-3.2,-40,195
COc1ccc(-c2nnc(Nc3ccc(S(=O)(=O)Nc4nccs4)cc3)c3ccccc23)cc1,101,i,0.97,0,/,-70,109
COc1ccc(OCC(=O)OCC(=O)Nc2ccc(S(=O)(=O)N3CCCCC3)cc2)cc1,102,i,0.93,9,-2.3,/,/
CC1CC(C)CN(C(=O)Cn2c(SCC(=O)N3CCc4ccccc4C3)nc3ccccc32)C1 (stereo not given),106,i,0.89,-16,3.7,-107,130
Cc1cc(CSc2ccccc2)ccc1NC(=O)COc1ccccc1,103,i,1,-5,-0.5,-42,100
COc1ccc2c(c1)C(C)=CC(C)(C)N2C(=O)CN1C(=O)CCC1=O,97,i,1,-5,-0.6,31,109
CCOC(=O)C(NC(C)=O)C(=O)Nc1ccc(C)cc1C (stereo not given),100,i,0.98,-7,/,/,/
Cc1ccc(OCC(=O)NNC(=O)C2CCN(c3nccc(C)n3)CC2)cc1,104,i,0.96,5,-1.1,26,75
NC(=O)C1(N2CCCCC2)CCN(C2CC(=O)N(CCc3ccccc3)C2=O)CC1 (stereo not given),104,i,0.94,-7,-2.0,-8,115
CN1CCN(c2oc(-c3ccc([N+](=O)[O-])cc3)nc2C#N)CC1,100,i,0.94,/,/,/,/
O=C1NC2(O)C(=O)c3ccccc3C2(O)N1 (stereo not given),98,i,0.97,-4,/,/,/
CC(C)C(=O)Nc1ccc2c(c1)nc(CCN1CCN(C)CC1)n2C,87,i,0.9,0,-0.2,38,105
COc1ccc(C(=O)OCC(=O)c2ccc(C)c(S(=O)(=O)N3CCOCC3)c2)cc1OC,74,i,0.79,/,/,/,/
CC1=C(C(=O)Nc2ccccc2C)C(c2ccc(C)o2)C2=C(CCCC2=O)N1 (stereo not given),119,i,1,0,-0.5,-6,97
CCOC(=O)CCC(NC(=O)c1cncc(O)c1)C(=O)OCC (stereo not given),100,i,1,-5,-2.5,16,114
COc1cc2[nH]c(=O)n(CCC(=O)N3CCC(N4CCCCC4)CC3)c(=O)c2cc1OC,106,i,1.2,14,-1.4,/,/
COc1ccc(NC(=O)CSc2nc3c(cc2C#N)CN(C)CC3)cc1,95,i,1.1,/,/,/,/
CC(Sc1ccsc1[N+](=O)[O-])C(=O)NCCc1ccc(Cl)cc1 (stereo not given),99,i,0.84,-6,-0.3,-59,72
COc1ccc(-c2ccnc3c(C#N)cnn23)cc1,100,i,1.1,-3,/,9,112
Cc1ccc(S(=O)(=O)N(C)C)cc1NC(=O)COC(=O)c1ccc2c(c1)OCO2,97,i,0.91,10,-1.8,-103,105
CC(C(=O)NCC1CCCCC1)N(C)CC(=O)Nc1ccc(N2CCOCC2)cc1 (stereo not given),102,i,0.93,-6,/,38,80
CN(Cc1ccccc1)C(=O)CCS(=O)(=O)c1ccc2c(c1)n(C)c(=O)c(=O)n2C,99,i,0.82,0,-1.5,/,/

# Reprinted from the part before: 7 entries; new compounds follow.
SMILES,RGS16-Gao HTS,HSV augment,HSV augment primary fold,PKD1 inh,GALR2 agonist,INS promoter inh,INS promoter inh cell count
COc1cc2[nH]c(=O)n(CCC(=O)N3CCC(N4CCCCC4)CC3)c(=O)c2cc1OC,106,i,1.2,14,-1.4,/,/
COc1ccc(NC(=O)CSc2nc3c(cc2C#N)CN(C)CC3)cc1,95,i,1.1,/,/,/,/
CC(Sc1ccsc1[N+](=O)[O-])C(=O)NCCc1ccc(Cl)cc1 (stereo not given),99,i,0.84,-6,-0.3,-59,72
COc1ccc(-c2ccnc3c(C#N)cnn23)cc1,100,i,1.1,-3,/,9,112
Cc1ccc(S(=O)(=O)N(C)C)cc1NC(=O)COC(=O)c1ccc2c(c1)OCO2,97,i,0.91,10,-1.8,-103,105
CC(C(=O)NCC1CCCCC1)N(C)CC(=O)Nc1ccc(N2CCOCC2)cc1 (stereo not given),102,i,0.93,-6,/,38,80
CN(Cc1ccccc1)C(=O)CCS(=O)(=O)c1ccc2c(c1)n(C)c(=O)c(=O)n2C,99,i,0.82,0,-1.5,/,/
Cc1ccc(CCN=c2c([N+](=O)[O-])nn(-c3ccccc3)n2O)cc1,100,i,1,-2,/,/,/
CCOC(=O)c1c(C)c(C(=O)NCc2ccccc2OC)c(C)n1C,76,i,0.94,11,-2.1,/,/
O=C(Nc1ccccc1)N1CCc2ccccc2C1,99,i,0.94,-4,1.2,-109,68
Cc1ccc(NC(=O)CCN2CCN(CCO)CC2)cc1Br,96,/,/,1,/,/,/
COc1ccc(Cn2c(CCC(=O)NCc3ccco3)nc3cccnc32)cc1,103,i,0.96,-2,1.2,-14,62
Cc1cccc(NC(=O)c2cccc(N3C(=O)C4C5CCC(C5)C4C3=O)c2)c1C (stereo not given),102,i,1,-10,-2.0,/,/
COc1cccc(CNc2ccc(F)c([N+](=O)[O-])c2)c1O,102,i,0.95,-2,/,/,/
O=C(CN1C(=O)CCSc2ccccc21)Nc1cccc(F)c1,106,i,0.91,9,-1.9,/,/
Cc1c(C(=O)Nc2cccc(S(=O)(=O)N3CCCC3)c2)oc2ccccc12,102,i,0.93,/,/,/,/
N#Cc1ccc(NC(=O)c2nc(-c3ccccc3)n(-c3ccccc3)n2)cc1,105,i,1,1,-5.0,6,18
COc1ccc(CCNC(=O)CN2CCC(n3nnc4cc(F)ccc43)CC2)cc1OC,103,/,/,-8,-1.2,12,96
CCc1nnc(NC(=O)NC(C)(C)C)s1,100,i,0.83,1,-1.3,46,109
O=c1c2ccccc2sn1-c1ccc(S(=O)(=O)N2CCCC2)cc1,-3.0*,i,0.72,-16,-2.5,-36,127
CCCc1nnc(SCc2ccc(C(=O)OC)o2)n1N,113,i,0.93,2,0.0,-3,147
COc1ccc(-c2nnc3n2N=C(C)CS3)cc1OC,418,i,0.98,4,-2.5,/,/
Cc1sc2ncnc(N(C)CCc3ccccn3)c2c1C,111,i,0.99,/,/,/,/
Cc1ccc(C(=O)CCC(=O)N2CCN(C(=O)c3ccco3)CC2)cc1,103,i,1.1,2,/,44,167
O=C(NS(=O)(=O)c1ccccc1)c1ccccc1F,108,i,0.97,-3,-1.3,21,117
Cc1ccc(C(=O)c2ccccc2C(=O)OCC(=O)Nc2ccc(SC(F)F)cc2)cc1,100,i,1,-14,-1.7,5,95
COc1ccc(-n2cc(-c3ccccc3)[nH]c2=S)cc1,87,i,0.97,-4,-1.9,/,/
Cc1cc(NC(=O)Nc2ccccc2)n(-c2ccccc2)n1,99,/,/,-8,-7.1,46,111
FC(F)(F)c1cccc(NC(=S)NCc2ccc(Cl)cc2)c1,98,i,1.2,1,/,-30,136
COc1ccc(Cn2c(-c3ccco3)nc3oc4ccccc4c(=O)c3c2=O)cc1,110,i,0.82,-7,-1.9,50,141
CCOC(=O)n1c(=O)n(Cc2cccc(C)c2)c2ccccc21,101,i,0.98,-1,/,-77,61
CCC(C)c1ccc(NC(=O)CN(C)CC(=O)Nc2cccc(OC)c2)cc1 (stereo not given),105,i,0.9,4,/,/,/
# (listing goes on)
SMILES,RGS16-Gao HTS,HSV augment,HSV augment primary fold,PKD1 inh,GALR2 agonist,INS promoter inh,INS promoter inh cell count
CCCCC(=O)Nc1ccc(C(=O)Nc2nc(CC(=O)OCC)cs2)cc1,79,i,0.95,-2,-0.1,-32,142
CN=c1scc(-c2ccc([N+](=O)[O-])cc2)n1/N=C/c1ccco1,95,i,0.99,5,/,25,171
C=CCOC(=O)C1=C(C)Nc2nc3ccccc3n2C1c1ccncc1 (stereo not given),115,i,0.9,-10,-1.1,/,/
Cn1c(CNC2CCCCC2)c(C#N)c2ccccc21,101,i,0.88,1,-2.9,-17,120
Cc1ccc(NC(=O)c2cc(-n3cnnc3)ccc2Cl)c(C)c1,101,i,0.98,10,-0.5,22,101
O=c1cc(-c2ccccc2)[nH]c2nc3ccccc3n12,71,i,0.87,3,0.1,25,129
NC(=O)CCCc1nc(-c2ccccc2Cl)no1,98,i,0.7,-4,-0.6,23,80
CCOC(=O)N1CCN(S(=O)(=O)c2ccc(F)c(C(=O)Nc3ccc(C(C)C)cc3)c2)CC1,111,i,0.68,-11,-1.2,-22,118
CCn1c(=O)cc(O)c2c(=O)n(C)c(=O)n(C)c21,114,/,/,-12,-0.2,-17,111
CN(C)S(=O)(=O)c1cccc(C(=O)Nc2cc(Cl)ccc2O)c1,101,i,0.88,-1,2.9,-100,121
Cc1nnc(SCC(=O)NCCc2ccccc2)[nH]c1=O,/,/,/,-7,-3.9,7,125
C=CCN(c1ccccc1)S(=O)(=O)c1c(C)[nH]c(=O)[nH]c1=O,100,i,1,5,/,0,69

# A second format for some results above:
smiles | RGS16-Gao HTS | HSV augment | HSV augment primary fold | PKD1 inh | GALR2 agonist | INS promoter inh | INS promoter inh cell count
CCOC(=O)n1c(=O)n(Cc2cccc(C)c2)c2ccccc21 | 101 | i | 0.98 | -1 | / | -77 | 61
CCC(C)c1ccc(NC(=O)CN(C)CC(=O)Nc2cccc(OC)c2)cc1 (stereo not given) | 105 | i | 0.9 | 4 | / | / | /
